# FGF22 binding: binders of human FGF22 protein, primary screen, FGF22 synaptogenesis inhibitor project, biophysical, thermal shift, single point; calls only at 9.99 µM; AID 651658, 2012; Fibroblast growth factor 22 (Homo sapiens), Q9HCT0; hit rate 1.5% among 340,000; recombinant FGF22 thermal shift, SYPRO orange fluorescence; percent of sucrose octasulfate shift, DMSO zero;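 active means melting point raised past a set limit in the mean and every replicate; three in four hits are not shown here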
# Target sequence (Q9HCT0 whole entry, looked up): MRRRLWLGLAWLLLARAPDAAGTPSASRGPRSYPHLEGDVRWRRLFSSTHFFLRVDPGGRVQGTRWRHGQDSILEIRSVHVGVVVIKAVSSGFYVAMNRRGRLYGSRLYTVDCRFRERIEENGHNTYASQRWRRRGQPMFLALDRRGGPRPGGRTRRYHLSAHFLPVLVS
# E coli growth: E. coli growth inhibition, primary screen, OD600; Escherichia coli growth, 23 h; hits give low values; OD600 absorbance (test concentration not listed); hit rate 0.21% among 330,000;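 active means OD600 absorbance below the run mean of sample wells minus 3.6 SD, in any replicate, cut at about 0.56 in these data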;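 further: stock transfer was 300 nL into about 60 µL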
# ALR inh: inhibitors of human ALR sulfhydryl oxidase, primary screen, biochemical, H2O2 detection, HRP-luminol luminescence, single point. FAD-linked sulfhydryl oxidase ALR (Homo sapiens), P55789. purified ALR, DTT oxidation. inhibition, % (concentration not given with the values). hit rate 3.8% among 290,000;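 active means mean and each replicate at 75% or more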;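 further: stock transfer was 7.5 nL into about 7.5 µL; 0% = neutral wells and 100% = wells with inactivated enzyme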
# B2AR ag: beta2AR agonists driving receptor internalization, primary screen, cell-based, FAP fluorogen, flow cytometry. AID 504454, 2011. Beta-2 adrenergic receptor (Homo sapiens), P07550. response, % (concentration not given with the values). hit rate 0.43% among 340,000. Am2.2-beta2AR cells; reference of the scale not given here;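 active means response above a set limit, near 3 SD of response in nonfluorescent compounds, cut at about 42% in these data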;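 further: stock transfer was 100 nL into about 11 µL; a reference agonist was the positive control; negative values mostly stem from fluorescent compounds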
# Target sequence (P07550 whole entry, looked up): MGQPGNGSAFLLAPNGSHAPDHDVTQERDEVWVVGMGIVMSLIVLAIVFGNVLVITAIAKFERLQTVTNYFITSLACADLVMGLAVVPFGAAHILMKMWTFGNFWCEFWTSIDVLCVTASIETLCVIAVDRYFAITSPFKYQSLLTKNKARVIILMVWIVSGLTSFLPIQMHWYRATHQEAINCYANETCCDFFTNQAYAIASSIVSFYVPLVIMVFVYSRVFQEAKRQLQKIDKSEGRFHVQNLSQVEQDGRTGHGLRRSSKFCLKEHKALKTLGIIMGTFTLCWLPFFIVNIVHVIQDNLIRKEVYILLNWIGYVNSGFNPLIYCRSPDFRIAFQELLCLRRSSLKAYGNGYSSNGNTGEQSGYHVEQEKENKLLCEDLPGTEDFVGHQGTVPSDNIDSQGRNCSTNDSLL
# rRNA inh HTS: reduced GFP signal of wild-type E. coli, primary screen, bacterial rRNA inhibitor project, GFP/RFP fluorescence, OD600, single point. hit rate 1.6% among 350,000. E. coli WT GFP vs humanized-ribosome RFP mutants, 24 h; hits give low values; DMSO median 0, no signal -100. GFP signal change (wild-type ribosome), % (no concentration beside the values);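 active means significant combined selectivity score with lowered wild-type GFP, culture density cut under 30%, mutant RFP and density less affected; inactive means any of these conditions unmet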; further: one replicate is shown; some compounds called inactive have numbers as strong as hits
# UCH37 inh: inhibitors of human UCH37 deubiquitinase, primary screen, biochemical, Ub-AMC cleavage, fluorescence. hit rate 0.33% among 330,000. AID 588478, 2011. purified proteasome/UCH37. Ubiquitin carboxyl-terminal hydrolase isozyme L5 (Homo sapiens), Q9Y5K5. inhibition, % (concentration not given with the values);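 active means mean of two replicates above 20%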;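 further: 0% = compound-free wells with enzyme and 100% = wells lacking proteasome; stock transfer was 100 nL into about 20 µL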
# Target sequence (Q9Y5K5 whole entry, looked up): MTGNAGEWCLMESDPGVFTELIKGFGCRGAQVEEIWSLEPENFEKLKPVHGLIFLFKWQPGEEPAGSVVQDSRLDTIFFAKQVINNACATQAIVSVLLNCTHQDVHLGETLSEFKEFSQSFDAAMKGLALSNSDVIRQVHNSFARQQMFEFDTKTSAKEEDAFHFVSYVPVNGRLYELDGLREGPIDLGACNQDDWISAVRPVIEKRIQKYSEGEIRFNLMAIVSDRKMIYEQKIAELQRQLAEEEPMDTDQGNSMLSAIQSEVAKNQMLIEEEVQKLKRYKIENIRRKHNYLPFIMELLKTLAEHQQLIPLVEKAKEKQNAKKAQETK
#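 Reagent: Ub-AMC substrate; assay system: Proteasome-associated human UCH37 deubiquitinase; controls: no-proteasome and no-compound wells; read-out: % inhibition of Ub-AMC cleavage fluorescence; timing: 30 min preincubation with enzyme, 25 min cleavage at room temperature; signal: AMC fluorescence from Ub-AMC cleavage, excitation 355 nm, emission 460 nm; buffer or medium: Tris-HCl pH 7.4 plus ovalbumin, ATP-MgCl2, DTT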
# HNF4A DNA FP: change in binding of human HNF4A to DNA, primary screen, biochemical, fluorescence polarization, FITC-DNA; Hepatocyte nuclear factor 4-alpha (Homo sapiens), P41235; 1 h; activity change, % at 10 µM; hit rate 0.3% among 360,000; AID 1224865, 2016; in the data active means activity change above about 30%, passing the limit was not always enough;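 further: controls were the assay level and a saturating level of protein; the project sought stronger binding though the title names inhibitors; some compounds called inactive have numbers as strong as hits; positive values seem to mean higher polarization but the record does not say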
# rRNA inh HTS OD600: further read-out of rRNA inh HTS, marked with its call; OD600 change, %; measured here: OD600 growth;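 optical density of the mix in the first replicate; 0 = DMSO median and -100 = no signal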
# rRNA inh HTS RFP: recorded beside rRNA inh HTS, whose call it bears; RFP signal change, %; measured here: RFP humanized mutant strains;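 first replicate; 0 = DMSO median and -100 = no signal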
# The depositor's hits bear a star; i = inactive; . = not tested or not shown; + = active, no number; & = joins results of further samples; ! = a repeat was not active. Not all compounds are listed. The share of hits here may be higher or lower than overall.
No.	Compound	FGF22 binding	E coli growth	ALR inh	B2AR ag	rRNA inh HTS	rRNA inh HTS OD600	rRNA inh HTS RFP	UCH37 inh	HNF4A DNA FP
1	CC(=O)c1ccc(OCc2cc(C(=O)N3CC4C[C@@H]5CC3C[C@H](C4)C5)no2)cc1	i	0.7	-3	-2	-16	-48	-2.4	1.6	-2.0
2	Cc1ccc(C(=O)N2CCC(C)CC2)cc1S(=O)(=O)N1CCCCC1	i	0.68	1	-3	-4	-3	-2.2	0.1	-0.5
3	CCC(Sc1nc2n[nH]c(C)c2c(=N)n1-c1cc(Cl)ccc1C)C(=O)N1CCOCC1 (stereo unspecified)	.	0.78	8	-8	.	.	.	1.1	3.8
4	CN(C)CC(C)(C)CNS(=O)(=O)CC12CCC(CC1=O)C2(C)C (stereo unspecified)	.	0.64	-1	11	.	.	.	-0.1	0.6
5	COc1ccccc1-n1c(=O)[nH]c2c(C(N)=O)nc(C3CCCCC3)nc21	i	0.71	-5	-1	-11	-31	7.4	-4.8	-2.5
6	Cc1c(Cl)cccc1NC(=S)Nn1cnnc1	i	0.7	.	9	6	3	3.3	3.0	1.6
7	O=C(CSc1nnc(-c2n[nH]c3ccccc23)n1-c1ccccc1)Nc1ccccc1Cl	.	0.72	-1	-5	.	.	.	2.6	3.1
8	CCc1c(C)sc(NC(=O)c2ccco2)c1C#N	i	0.62	.	-10	-11	-8	-1.5	4.0	5.3
9	Cc1cccc(NC(=O)CS(=O)(=O)c2cn(CC(=O)N3CCOCC3)c3ccccc23)c1	i	0.67	5	1	10	6	2.1	4.2	1.6
10	COc1ccc(NC(=S)NC2CC3CCC2C3)c(OC)c1 (stereo unspecified)	i	0.66	-15	1	-2	-7	-4.9	5.9	-1.5
11	Cc1ccccc1OCC(=O)N/N=C1\SCC(=O)N1Cc1ccccc1	.	.	-10	-3	.	.	.	.	-2.4
12	COc1ccc(NC(=O)c2sc3nc(C)nc(N4CCN(c5ccccn5)CC4)c3c2C)c(OC)c1	i	0.66	-6	16	4	26	-1.1	-12	3.7
13	COc1cc(/C=C(\C#N)C(=O)N2CCCCC2)ccc1O	i	0.71	99*	5	-9	-10	-2.6	8.9	-0.5
14	O=C(Nc1ccc(Cl)cc1)NC1CCCC1Cc1ccco1 (stereo unspecified)	.	0.61	-3	7	.	.	.	1.9	3.4
15	COc1ccccc1NC(=O)N1CCCC1C(=O)Nc1ccc(NC(C)=O)cc1 (stereo unspecified)	.	0.71	.	0	.	.	.	1.0	0.5
16	NC(=S)NN=Cc1cc(-c2cccc(N)c2)ccn1	i	.	.	.	-23	-30	1.8	.	1.6
17	COc1ccc(C(=O)/C=C/c2cccs2)c(OC(=O)c2cccc([N+](=O)[O-])c2)c1	.	0.8	4	0	.	.	.	4.9	-2.0
18	CCCCC(=O)Nc1ccc(C(=O)Nc2nnc(COC)s2)cc1	i	0.69	-4	5	5	4	-4.1	2.7	0.5
19	COC(CNC(=O)c1ccc2c(=O)n(Cc3ccc(Cl)cc3)c(=S)[nH]c2c1)OC	i	0.71	-7	-1	9	14	-3.9	3.9	-5.5
20	CC(C)(C)NC(=O)CSc1nnnn1C(C)(C)C	.	0.72	-4	2	.	.	.	-0.3	-0.7
21	CCOC(=O)Cn1c(=N)n(CCOc2ccc3ccccc3c2)c2ccccc21	.	0.7	-10	33	-18	-47	18	10	2.0
22	CCn1ncc(/C=C/C(=O)NCc2cn(C)nc2C)c1C	.	0.64	-10	-5	.	.	.	2.3	3.0
23	CCCN(C)C[C@H]1Oc2cc(C#Cc3ccc(F)cc3)ccc2S(=O)(=O)N([C@H](C)CO)C[C@@H]1C	+!	.	.	.	1&-3	2&-8	0.5&4.2	.	-0.6
24	NS(=O)(=O)c1ccc(NC(=O)COc2cccc3ccccc23)cc1	i	0.67	-9	17	4	0	-1.9	-1.0	-0.5
25	CCOc1ccccc1Nc1cc(C)c2cccc(C)c2n1	i	0.66	.	-4	-12	2	-3.7	-170	-1.2
26	O=C(COC(=O)c1ccc(S(=O)(=O)N2CCCC2)cc1)Nc1ccc(N2CCOCC2)cc1	i	0.69	-7	10	15	13	0.5	-1.2	2.0
27	O=C(Cn1cc(COc2ccc(Cl)c(Cl)c2)nn1)NS(=O)(=O)c1ccccc1C(F)(F)F	i	.	.	.	3	1	2.5	.	-4.8
28	CCOC(=O)c1c(-c2ccc(OC)cc2)oc2c1C(OC(C)=O)CCC2 (stereo unspecified)	i	.	.	.	-12	-16	1.0	.	4.9
29	O=C(COc1nc2ccccc2nc1N1CCOCC1)N1CCc2ccccc21	.	0.68	.	3	9	6	0.9	-11	3.6
30	O=C(O)c1cc([N+](=O)[O-])ccc1Oc1ccccc1	i	.	.	-2	-6	7	-6.4	.	-0.5
31	Cc1cc(C(=O)COC(=O)C(C)NC(N)=O)c(C)n1Cc1ccco1 (stereo unspecified)	i	0.66	-4	5	15	11	3.9	1.4	-4.0
32	CCN(CC)C(=O)CSc1ncnc2c1nnn2-c1ccc(F)cc1	.	0.71	-1	-1	.	.	.	-0.6	-1.0
33	CCN(C(=O)CSc1cccc[n+]1[O-])c1ccccc1	i	0.68	-7	-4	.	.	.	3.5	-1.3
34	CC1(C)Cc2cccc(OCC(=O)NCc3ccc(F)cc3)c2O1	i	0.64	.	-4	-2	-3	-1.6	-1.7	3.3
35	CCCOc1ccc(C(=O)Nc2ccc(S(=O)(=O)Nc3onc(C)c3C)cc2)cc1	i	0.67	10	5	-30	-38	-5.0	5.2	1.3
36	O=C(NCc1ccccc1)C1C(=O)Nc2ccccc2C(=O)N1c1ccc2c(c1)OCCO2 (stereo unspecified)	i	.	.	.	-17*	0.3*	6.1*	.	0.1
37	CCOC(=O)C1=C(C)NC(=O)NC1/C=C\c1ccccc1 (stereo unspecified)	i	0.67	-4	-6	12	10	2.1	0.9	3.5
38	CCOC(=O)N/N=C\c1sccc1C	i	.	-8	-4	8	12	1.2	.	1.0
39	O=C1CCN(C(=O)Cc2ccccc2)c2ccccc21	i	.	.	.	5	6	0.3	.	3.8
40	CN(c1ccc(C(=O)N2CCCCC2)cc1)S(=O)(=O)c1cccs1	i	0.65	-2	-4	-3	3	-0.2	3.1	2.3

# Compounds above with a cyano group, in the order listed:
No.	Compound	FGF22 binding	E coli growth	ALR inh	B2AR ag	rRNA inh HTS	rRNA inh HTS OD600	rRNA inh HTS RFP	UCH37 inh	HNF4A DNA FP
8	CCc1c(C)sc(NC(=O)c2ccco2)c1C#N	i	0.62	.	-10	-11	-8	-1.5	4.0	5.3
13	COc1cc(/C=C(\C#N)C(=O)N2CCCCC2)ccc1O	i	0.71	99*	5	-9	-10	-2.6	8.9	-0.5

# Continued.
No.	Compound	FGF22 binding	E coli growth	ALR inh	B2AR ag	rRNA inh HTS	rRNA inh HTS OD600	rRNA inh HTS RFP	UCH37 inh	HNF4A DNA FP
41	CNc1nc2c(c(=O)n(C)c(=O)n2C)n1CCCc1ccccc1	i	0.65	38	-2	1	8	-0.9	2.4	-4.4
42	O=C(NNC(=O)c1cc(-c2ccccc2)nc2ccccc12)Nc1cccc(Cl)c1	.	0.75	.	12	.	.	.	2.1	-1.0
43	O=C(O)c1ccccc1-c1ccc([N+](=O)[O-])cc1Cl	i	.	.	.	-12	10	-1.1	.	2.7
44	COc1ccc(C(=O)NC2CC2)cc1OC1CCN(Cc2ccc(F)cc2F)CC1	i	0.66	3	-3	4	5	1.0	2.4	0.0
45	COc1cc(C(=O)NCCC2=CCCCC2)cc(OC)c1OC	.	0.66	-10	-1	.	.	.	3.7	1.8
46	Cc1ccc(N2CC(C(=O)Nc3ccc(S(=O)(=O)N4CCCC4)cc3)CC2=O)cc1 (stereo unspecified)	.	0.65	.	2	.	.	.	0.1	-1.5
47	Cc1c(Cl)cccc1NC(=O)CSc1nncn1-c1cccnc1	i	0.7	.	-10	1	-4	4.4	0.4	2.1
48	CCOC(=O)c1c(C)[nH]c(C(=O)COC(=O)CNS(=O)(=O)c2ccc(C)cc2)c1C	i	0.65	0	14	.	.	.	3.0	1.7

# Two of the compounds above, with values under each structure:
# Values run as follows: FGF22 binding | E coli growth | ALR inh | B2AR ag | rRNA inh HTS | rRNA inh HTS OD600 | rRNA inh HTS RFP | UCH37 inh | HNF4A DNA FP
42: O=C(NNC(=O)c1cc(-c2ccccc2)nc2ccccc12)Nc1cccc(Cl)c1
  . | 0.75 | . | 12 | . | . | . | 2.1 | -1.0
43: O=C(O)c1ccccc1-c1ccc([N+](=O)[O-])cc1Cl
  i | . | . | . | -12 | 10 | -1.1 | . | 2.7

# Following part
No.	Compound	FGF22 binding	E coli growth	ALR inh	B2AR ag	rRNA inh HTS	rRNA inh HTS OD600	rRNA inh HTS RFP	UCH37 inh	HNF4A DNA FP
49	Cc1ccc(S(=O)(=O)N2CCC(c3nc4c(nnn4Cc4ccccc4)c(=O)[nH]3)CC2)cc1	.	0.68	0	-4	-36	-49	12	0.5	3.4
50	COc1ccc(OC)c(N(CC(=O)O)S(=O)(=O)c2ccc(OC)c(OC)c2)c1	.	0.67	-2	1	.	.	.	3.3	-3.6
51	Cc1ccc(Oc2nnc(-c3cccs3)c3ccccc23)cc1	i	0.7	-5	-24	.	.	.	-1.3	1.9
52	O=C1CNC(=O)N1CC(O)Cn1c2ccccc2c2ccccc21 (stereo unspecified)	i	0.71	-3	0	-1	-1	-3.0	3.9	1.0
53	COc1cccc(C(=O)N2CCN(Cc3ccccn3)CC2)c1	i	0.66	-3	-2	15	25	2.4	2.7	-0.3
54	Cc1cccc(NC(=O)CN(C)S(=O)(=O)c2cccc3cccnc23)c1	i	0.74	51	1	-7	-7	-2.5	3.2	0.3
55	CCOC(=O)C1=C(CN2CCN(CCC#N)CC2)NC(=O)NC1c1ccc2c(c1)OCO2 (stereo unspecified)	i	0.69	-5	-4	24	19	1.3	1.9	3.1
56	COc1ccc(CCn2c(N3CCN(C)CC3)nc3c2c(=O)[nH]c(=O)n3C)cc1	.	0.78	-2	3	.	.	.	5.2	4.2
57	CCN(CC)Cc1cc(NC2=NS(=O)(=O)c3ccccc32)ccc1OC(=O)c1ccccc1	i	0.68	40	-11	-1	8	-5.9	8.1	4.1
58	C=C(C)C1CC=C(C)/C(=N\NC(=S)Nc2ccc(C)cc2)C1 (stereo unspecified)	.	.	5	-12	.	.	.	.	3.8
59	COc1ccc(/C=C2\SC(=O)N(CC(=O)Nc3cccc(C)c3)C2=O)cc1O	i	0.68	5	8	-1	6	-1.2	1.0	-0.3
60	O=C(Oc1ccc2c3c(c(=O)oc2c1)CCC3)c1ccco1	i	0.66	29	17	-12	-6	4.5	i	4.3
61	Cc1ccc(-c2nnc(N3CCN(S(C)(=O)=O)CC3)c3ccccc23)cc1	.	0.71	-23	12	-32	-43	-17	3.6	-3.0
62	CNS(=O)(=O)c1cccc(C(=O)OCC(=O)N2CCc3ccccc3C2)c1	.	0.63	2	0	.	.	.	1.9	0.3
63	CCCS(=O)(=O)NC(=O)C1(C)CCN(C(=O)COc2ccc(Cl)cc2Cl)C1 (stereo unspecified)	i	.	.	.	15	14	5.5	.	-2.0
64	Cc1nc(CS(=O)(=O)c2ccccc2)cc(Sc2ccccc2Cl)n1	.	0.81	.	9	.	.	.	2.2	0.9

# Compound activity deposited in PubChem BioAssay by several laboratories.
